Source: PubChem
V. cholerae QS: Vibrio cholerae quorum sensing activators, luminescence (AID 686977); V. cholerae quorum sensing reporter, luminescence, 6 h; higher luminescence means a stronger effect; most inactives read 0; luminescence at 50 µM unless noted, or EC50 in µM where a hit was titrated; 9,400 tested, under 10 active;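 active = light above mean plus 3 SD and confirmed in a dose series; inconclusive = above that limit without a clear retest; inactive = below it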;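 note: raw light counts without normalisation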
The depositor's hits bear a star; [ ] = dose if it differs, or a comment. This is a subset; the hit share may differ from the screen's.

The opening five records (preview)
Results for CCOc1ccc(NC(=O)CSc2nnc(COc3c(C)cccc3C)o2)cc1 ?
V. cholerae QS: 0

Results for COc1cccc(C(c2sc3ncnn3c2O)N2CCc3ccccc3C2)c1 (stereo not drawn) ?
V. cholerae QS: 0

What do the screens show for `CC1=C(C(=O)Nc2ccccn2)C(c2ccc(Br)cc2)n2ncnc2N1` (stereo not drawn)?
V. cholerae QS: 0

What do the screens show for `CCOC(=O)CC(NC(=O)c1ccco1)c1ccccc1Cl` (stereo not drawn)?
V. cholerae QS: 0

What do the screens show for `CCCCn1c(N)c(N(CCOC)C(=O)CSc2nc3ccc(C)cc3[nH]2)c(=O)[nH]c1=O`?
V. cholerae QS: 0

The listing, from the first entry:
Results for CCOc1ccc(NC(=O)CSc2nnc(COc3c(C)cccc3C)o2)cc1 ?
V. cholerae QS: 0

Results for COc1cccc(C(c2sc3ncnn3c2O)N2CCc3ccccc3C2)c1 (stereo not drawn) ?
V. cholerae QS: 0

What do the screens show for `CC1=C(C(=O)Nc2ccccn2)C(c2ccc(Br)cc2)n2ncnc2N1` (stereo not drawn)?
V. cholerae QS: 0

What do the screens show for `CCOC(=O)CC(NC(=O)c1ccco1)c1ccccc1Cl` (stereo not drawn)?
V. cholerae QS: 0

What do the screens show for `CCCCn1c(N)c(N(CCOC)C(=O)CSc2nc3ccc(C)cc3[nH]2)c(=O)[nH]c1=O`?
V. cholerae QS: 0

How did CCOC(=O)CN1CC23C=CC(O2)C(C(=O)Nc2ccc(C(C)=O)cc2)C3C1=O (stereo not drawn) do in these assays?
V. cholerae QS: 0

How did COc1cc(NC(=O)CN(c2cc(C)cc(C)c2)S(=O)(=O)c2c(C)noc2C)cc(OC)c1 do in these assays?
V. cholerae QS: 40

Results for O=c1[nH]c2ccc(Cl)cc2c(-c2ccccc2)c1SC(=S)N1CCOCC1 ?
V. cholerae QS: 0

What do the screens show for `COc1ccc(OC)c(C(C)NC(=O)c2ccco2)c1` (stereo not drawn)?
V. cholerae QS: 0

Results for O=C(CCC(=O)OCC(=O)c1ccc(Br)cc1)Nc1ccc(Br)c2cccnc12 ?
V. cholerae QS: inconclusive

Results for CC(=O)Nc1ccc(NS(=O)(=O)c2cccc3ccccc23)cc1 ?
V. cholerae QS: 0

How did Cc1nc(SCC(=O)Nc2cc(C)on2)c2c(=O)n(C)c(=O)n(C)c2n1 do in these assays?
V. cholerae QS: 40

Some of these compounds in order of molar mass, falling.
Results for O=C(CCC(=O)OCC(=O)c1ccc(Br)cc1)Nc1ccc(Br)c2cccnc12 ?
V. cholerae QS: inconclusive

How did COc1cc(NC(=O)CN(c2cc(C)cc(C)c2)S(=O)(=O)c2c(C)noc2C)cc(OC)c1 do in these assays?
V. cholerae QS: 40

What do the screens show for `CCCCn1c(N)c(N(CCOC)C(=O)CSc2nc3ccc(C)cc3[nH]2)c(=O)[nH]c1=O`?
V. cholerae QS: 0

Results for CC(=O)Nc1ccc(NS(=O)(=O)c2cccc3ccccc23)cc1 ?
V. cholerae QS: 0

(more compounds)
How did Clc1ccc2c(NCc3ccccn3)ncnc2c1 do in these assays?
V. cholerae QS: 40

What do the screens show for `NC(N)=NCC1COC2(CCCCC2)O1` (stereo not drawn)?
V. cholerae QS: 0[10 µg/mL]

How did COC(=O)c1ccc(SC2CCCCC2)c([N+](=O)[O-])c1 do in these assays?
V. cholerae QS: 0

Results for CCOC(=O)c1c(C)[nH]c2cc(Br)c(OC)cc12 ?
V. cholerae QS: 0

What do the screens show for `Cc1cc(C)cc(NC(=O)CC2NCCNC2=O)c1` (stereo not drawn)?
V. cholerae QS: 0

How did Cc1ccc(OCc2nnc(SCc3ccc(C#N)cc3)n2-c2ccc(C)cc2)cc1 do in these assays?
V. cholerae QS: 0

Results for O=C(CSc1nnc2c(Cl)cc(C(F)(F)F)cn12)Nc1ccc2c(c1)OCO2 ?
V. cholerae QS: 40

How did CCOC(=O)N1CCN(C(=O)COc2ccc(S(=O)(=O)NCC(C)C)cc2C)CC1 do in these assays?
V. cholerae QS: 0

What do the screens show for `CC(C)N1CC(O)=C(c2nc3ccccc3c(=O)[nH]2)C1=N`?
V. cholerae QS: 0

What do the screens show for `COC(=O)Nc1ccc(S(=O)(=O)N2CCCCCC2)cc1`?
V. cholerae QS: 40

Results for COc1ccc2c(c1O)-c1c(OC)c(OC)cc3c1[C@H](C2)N(C)CC3 ?
V. cholerae QS: 0[10 µg/mL]

How did Cc1ccc(NC(=O)N2CCc3ccccc3C2)cc1 do in these assays?
V. cholerae QS: 40

What do the screens show for `Cc1ccc2nc(Cc3ccc(N)cc3)[nH]c2c1`?
V. cholerae QS: 0

What do the screens show for `COc1ccc(CC(=O)Nc2nnc(SCc3ccccc3)s2)cc1S(=O)(=O)N1CCOCC1`?
V. cholerae QS: 0

What do the screens show for `C[C@@H]1C[C@H]2[C@@H]3C[C@H](F)C4=CC(=O)C=C[C@]4(C)[C@@]3(F)[C@@H](O)C[C@]2(C)[C@@]1(O)C(=O)CO`?
V. cholerae QS: 40[10 µg/mL]

Results for CCn1ncc(C2=NOC(C(=O)NCc3ccc(OC)cc3)C2)c1C (stereo not drawn) ?
V. cholerae QS: 0

How did CCC(C(=O)Nc1ccccc1OC)n1c(C(=O)OC)cc2ccsc21 (stereo not drawn) do in these assays?
V. cholerae QS: 40

What do the screens show for `COCCCNC(=O)CC1Oc2ccccc2NC1=O` (stereo not drawn)?
V. cholerae QS: 0

What do the screens show for `O=C(O)C1CC=CCC1C(=O)NCc1cn2ccccc2n1` (stereo not drawn)?
V. cholerae QS: 0

How did CC(C)n1c(C(=O)OCC(=O)NCc2ccc3c(c2)OCO3)cc2sccc21 do in these assays?
V. cholerae QS: 0

Results for COc1ccccc1NC(=O)CSc1nnc(Cc2cccn2C)n1-c1ccc(F)cc1 ?
V. cholerae QS: 0

How did COc1ccc(-c2cc(=O)c3c(O)cc(O)cc3o2)cc1 do in these assays?
V. cholerae QS: 0[10 µg/mL]

What do the screens show for `Cc1c(Nc2ncnc3nc[nH]c23)c(=O)n(-c2ccccc2)n1C`?
V. cholerae QS: 80

How did O=C(O)c1cccnc1SC1CC(=O)N(CCc2ccccc2)C1=O (stereo not drawn) do in these assays?
V. cholerae QS: 0

What do the screens show for `COCC(=O)N(C)C1(c2nnnn2CCOC(=O)Nc2cccc3ccccc23)CCCC1`?
V. cholerae QS: 40

Results for Cc1cccc(NS(=O)(=O)c2cccc3cccnc23)n1 ?
V. cholerae QS: 40

Results for CCSc1nnc(NC(=O)C2(C)Cc3ccccc3C(=O)O2)s1 (stereo not drawn) ?
V. cholerae QS: 0

Results for Cc1ccc(Cn2nnnc2CN2CCC(n3nnc4cc(C(F)(F)F)ccc43)CC2)cc1 ?
V. cholerae QS: 0

Results for O=C(Cn1c(CSc2ccccc2)nc2ccccc21)Nc1ccccc1 ?
V. cholerae QS: 40

Results for O=C(c1ccco1)N1CCN(S(=O)(=O)c2ccc(S(=O)(=O)NC3CCCCC3)cc2)CC1 ?
V. cholerae QS: 0

What do the screens show for `O=C(O)CCCCCNC(=O)Nc1ccc2c(c1)OCCO2`?
V. cholerae QS: 0

What do the screens show for `Cc1onc(-c2ccccc2Cl)c1C(=O)Nc1nnc(-c2ccc(F)cc2)s1`?
V. cholerae QS: 40

Results for COc1ccc2oc(=O)c(C(=O)N3CCN(c4ccccc4C)CC3)cc2c1 ?
V. cholerae QS: 0

What do the screens show for `C=CCn1c(SCCOC)nc2c1c(=O)[nH]c(=O)n2C`?
V. cholerae QS: 0

What do the screens show for `Cc1ccc(N/C(CSC(N)=O)=N\S(=O)(=O)c2ccc(C)cc2)cc1`?
V. cholerae QS: 0

How did N#CC1=C2SCN(Cc3ccco3)CN2C(=O)CC1c1ccccc1F (stereo not drawn) do in these assays?
V. cholerae QS: 0

Results for Cc1[nH]n(-c2cccc(Cl)c2)c(=O)c1/C=N/n1c(C)nc2ccccc2c1=O ?
V. cholerae QS: 40

What do the screens show for `COCCn1c(=O)[nH]c2cc(C(=O)NCCN3CCN(c4ccccc4F)CC3)ccc2c1=O`?
V. cholerae QS: 0

Results for COc1ccccc1CNC(=O)CNCC1CCCO1 (stereo not drawn) ?
V. cholerae QS: 0

Results for CCC(=O)Nc1ccccc1N1CCN(S(C)(=O)=O)CC1 ?
V. cholerae QS: 0

How did c1ccc2c(c1)NC1(CCCCCC1)n1c-2nc2ccccc21 do in these assays?
V. cholerae QS: 0

How did C=CCC(NCc1ccco1)c1ccc(OC)c(OC)c1 (stereo not drawn) do in these assays?
V. cholerae QS: 0

How did Cc1ccc(C(=O)Nc2nccc(-c3cccs3)n2)cc1 do in these assays?
V. cholerae QS: 0

What do the screens show for `C[N+]1(C)C[C@@H](O)C[C@H]1C(=O)[O-]`?
V. cholerae QS: 0[10 µg/mL]

What do the screens show for `O=C1CC(c2ccco2)CC(O)=C1C=Nc1cc(Cl)cc(Cl)c1` (stereo not drawn)?
V. cholerae QS: 0

What do the screens show for `Cc1cc(C)c2ccc(N)nc2c1O`?
V. cholerae QS: 0

How did Cn1c(N2CCNCC2)nc2ccccc21 do in these assays?
V. cholerae QS: 0

What do the screens show for `O=C(Cn1cccc1)N1CCN(c2ccc(F)cc2)CC1`?
V. cholerae QS: 0

How did CCN1CCN(c2cc(C)c3cc(NC(=O)c4ccncc4)ccc3n2)CC1 do in these assays?
V. cholerae QS: 0

What do the screens show for `CCOc1cccc(=O)c2c(C)oc(C)c12`?
V. cholerae QS: 0

How did O=C(CCN1C(=O)c2ccccc2C1=O)Nc1cccc(S(=O)(=O)N2CCCCC2)c1 do in these assays?
V. cholerae QS: inconclusive

What do the screens show for `O=C(Cn1c(-c2ccccc2)noc1=O)Nc1ccc(S(=O)(=O)N2CCOCC2)cc1`?
V. cholerae QS: 0

How did COc1ccc(S(=O)(=O)Nc2ccc3c(c2)COC3=O)cc1OC do in these assays?
V. cholerae QS: 0

How did CCCCNC(=O)c1ccccc1Cl do in these assays?
V. cholerae QS: 80

What do the screens show for `Cc1cccc(NC(=O)Nc2ccc3c(c2)N(C)C(=O)CS3)n1`?
V. cholerae QS: 200

Results for CC(C)(C)c1cc(CN2CCCCC2)cc(C(C)(C)C)c1O ?
V. cholerae QS: 0

Results for Cc1ccc(SCC(=O)NC(=O)NCc2ccco2)c(C)c1 ?
V. cholerae QS: 0

How did CCOC(=O)N1CCN(c2c(N3CCc4ccccc43)c(=O)c2=O)CC1 do in these assays?
V. cholerae QS: 0

Results for CCCCC(=O)Nc1ccc(Br)cc1C(=O)O ?
V. cholerae QS: 0

How did CCCCN(C)C(=O)C(Cc1ccccc1)NS(=O)(=O)c1ccc2c(c1)c(=O)n(C)c(=O)n2C (stereo not drawn) do in these assays?
V. cholerae QS: 40

How did Cc1ccc2oc(=O)c3cc(C(=O)NCCN4CCN(C)CC4)sc3c2c1 do in these assays?
V. cholerae QS: 0

How did CCOC(=O)COc1cccc2c(=O)n(CC(=O)N3CCc4ccccc43)ccc12 do in these assays?
V. cholerae QS: 0

What do the screens show for `CCOC(=O)C1=C(CN2CCN(c3ccc(F)cc3)CC2)NC(=O)NC1c1cccs1` (stereo not drawn)?
V. cholerae QS: 160

What do the screens show for `CCOC(=O)C1=C(N)N2C(=O)C(C)SC2=C(C(=O)OC)C1c1ccccc1OC` (stereo not drawn)?
V. cholerae QS: 40

Results for COc1ccc(-c2cc(CCCC(=O)NCc3ccccn3)no2)cc1 ?
V. cholerae QS: 0

What do the screens show for `Cc1ccc(N2C(N)=C(C#N)C3(C(=O)N(C)c4ccccc43)C3=C2CC(C)(C)CC3=O)cc1Cl` (stereo not drawn)?
V. cholerae QS: 0

Results for CCC(=O)O[C@H]1CC[C@H]2[C@@H]3CCC4=CC(=O)CC[C@]4(C)[C@H]3CC[C@]12C ?
V. cholerae QS: 0[10 µg/mL]

What do the screens show for `O=C(NC1CC1)C1CCN(c2ncnc3c2sc2cccc(F)c23)CC1`?
V. cholerae QS: 0

How did CC12CCCCC1c1ccccc1C(=NCC(=O)O)N2 (stereo not drawn) do in these assays?
V. cholerae QS: 40

How did Cc1ccc2oc(=O)c3cnn(CC(=O)N(CCN(C)C)Cc4ccco4)c3c2c1 do in these assays?
V. cholerae QS: 0

What do the screens show for `COc1ccc(NC(=O)C2CCCN(S(=O)(=O)c3cccc4cccnc34)C2)cc1` (stereo not drawn)?
V. cholerae QS: 40

Results for NCc1ccccc1CC(=O)N[C@@H]1C(=O)N2C(C(=O)O)=C(CSc3nnnn3CC(=O)O)CS[C@H]12 ?
V. cholerae QS: 960[10 µg/mL]

How did C(=C\c1ccccc1)/C=N/N1CCN(c2ccccn2)CC1 do in these assays?
V. cholerae QS: 40

Results for CCOC(=O)c1c(C)[nH]c(C(=O)OCC(=O)NC(C)C)c1C ?
V. cholerae QS: 40

How did CC1(C)OC(=O)NC1=O do in these assays?
V. cholerae QS: 0[10 µg/mL]

Results for O=C(Nc1ccccc1)NC1(C(=O)NCc2ccc3c(c2)OCO3)CCCCC1 ?
V. cholerae QS: 40

What do the screens show for `CCCCCCC[N+](CC)(CC)CCCCc1ccc(Cl)cc1`?
V. cholerae QS: 40[10 µg/mL]

What do the screens show for `CC(=O)Nc1nnc(SCc2ccccc2F)s1`?
V. cholerae QS: 0

What do the screens show for `Cc1oc(-c2ccc(Cl)cc2)nc1CN1CCC(C(=O)N2CCN(Cc3ccccc3)CC2)CC1`?
V. cholerae QS: 40

Results for CC1Cc2ccccc2N1C(=O)Cn1c(=O)oc2cc(S(=O)(=O)N3CCCCC3)ccc21 (stereo not drawn) ?
V. cholerae QS: 320

What do the screens show for `O=P1(NCCCl)OCCCN1CCCl` (stereo not drawn)?
V. cholerae QS: 0[10 µg/mL]

Results for COc1ccccc1CNC(=O)C1CCN(S(=O)(=O)c2cccc3cccnc23)CC1 ?
V. cholerae QS: 0

How did CCc1nc2c(cnn2-c2ccc(F)cc2)c(=O)n1-c1ccc(N2CCC(C)CC2)cc1 do in these assays?
V. cholerae QS: 0

Results for CC1CCCC(NC(=O)Cn2cc3c(n2)CCCCC3)C1C (stereo not drawn) ?
V. cholerae QS: 0

How did Cc1ccc(-n2nc(C)c3c(C)c(CCC(=O)NCc4ccccc4)c(C)nc32)cc1 do in these assays?
V. cholerae QS: 40

Results for Cc1cccn2c(=O)c3cc(C#N)c(=N)n(CCN4CCOCC4)c3nc12 ?
V. cholerae QS: 40

What do the screens show for `C=CCN1C(=O)/C(=C/c2ccc(N(C)C)cc2)S/C1=N\c1nnc(CC)s1`?
V. cholerae QS: 0

Results for COc1ccc(OC)c2c1sc(=NC(=O)c1cccc(N3C(=O)CCC3=O)c1)n2C ?
V. cholerae QS: 0
